Assay outcomes (PubChem BioAssay)
ugtP null kill: growth inhibition of ugtP-null S. aureus, primary screen, RN4220 ugtP deletion, OD600; 16 h; some inactives read as strong as hits; growth inhibition, % (test concentration not listed); 330,000 tested, 0.54% active; AID 1259309, 2017;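 active = z-score under -3 and OD600 up to 0.15 on both plates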;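 note: plate controls were untreated wells for no effect and antibiotic for full effect; wells of about 80 µL received 100 nL stock; the first replicate is given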
RN4220 kill: growth inhibition of S. aureus RN4220, primary screen, OD600. 16 h. inhibition, % (no concentration beside the values). 330,000 tested, 0.33% active;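 active = z-score of -3 or lower and OD600 up to 0.18 on both plates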;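 note: plate controls were untreated cells for no effect and reference antibiotic for full effect; stock transfer was 100 nL into about 80 µL; one replicate is shown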
BJeLR lethal: MLPCN primary cell-based screen for lethality selective to Ras in HRASV12 cells | AID 1554, 2009 | 300,000 tested, 0.17% active | BJeLR (HRASV12) viability, CellTiter-Glo ATP luminescence, 48 h; reference of the scale not given here | inhibition, % (test concentration not listed);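 active = replicate mean above 50%; inconclusive = above 50% but judged a plate artefact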;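 note: 50 nL library stock added to about 25 µL; numbers are from one replicate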
PrP 5UTR inh: inhibition of PrP 5' UTR reporter expression; cell-based PrP 5' UTR mRNA reporter, plate reader; inhibition, % (concentration not given with the values); 340,000 tested, 0.35% active;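 active = every replicate at 50% or more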;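 note: 0 = median of the neutral control wells; tested in H4 reporter cells; numbers are from one replicate; inactives centre near -14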
Mtb hypoxia rep: PubChem AID 1159583; M. tuberculosis hypoxia-regulated fluorescent reporter, fluorescence; 300,000 tested, 0.1% active; fluorescence inhibition, % (test concentration not listed);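 active = 35 to 45% if threefold the growth effect, above 45% if 1.5-fold the growth effect; inactive = the rest, general growth blockers included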;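 note: wells of about 50 µL received 100 nL stock; 0% = vehicle wells and 100% = reference inhibitor wells; whole bacteria with a GFP reporter of the hypoxia response; strong numbers were not always called active; many hits fall short of the cut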
Bead autofluor: flagged as autofluorescent in microsphere protease counterscreen; compound autofluorescence counterscreen, microsphere flow cytometry; hits give high values; fluorescence intensity (concentration not given with the values); 360,000 tested, 3.1% active;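 active = at least 3 SD above the mean of all compounds, about 16000 in these data; inconclusive = too few beads counted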;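 note: 100 nL of 1 mM stock went into each well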
Mtb hypoxia rep growth: recorded beside Mtb hypoxia rep, whose call it bears; growth inhibition, %; measured here: M. tuberculosis growth (absorbance);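 0% = vehicle and 100% = reference antibiotic; read after six days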
Starred values were filed as active, the others as inactive; ? = inconclusive; nt = no result given.

entry	Compound	ugtP null kill	RN4220 kill	BJeLR lethal	PrP 5UTR inh
1	COc1cc(C=Nn2cnnc2)ccc1OS(=O)(=O)c1ccccc1[N+](=O)[O-]	17	9.7	nt	nt
2	CN=C1S/C(=C\c2ccc(SC)cc2)C(=O)N1C	-4	9.5	14	-30
3	CCOc1ccc(-n2c(Cc3cc(=O)[nH]c(=O)[nH]3)nnc2SCc2cccnc2)cc1	5	7.3	3	-6
4	COc1ccc(OC)c2[nH]c(=O)c(CCNC(=O)c3cc4ccccc4o3)cc12	6	3.6	8	1
5	Cc1ccc(NC(=O)CN2CCc3cc4c(cc3C2)OCCCO4)cc1	6	-3.0	-3	5
6	O=C(NCc1ccco1)c1ccc(=O)oc1	3	6.9	-13	-10
7	S=c1[nH]nc(-c2ccncc2)n1/N=C/C(Cl)=C\c1ccccc1	nt	nt	-2	-30
8	O=[N+]([O-])c1cc(S(=O)(=O)N2CCCC2)ccc1NCCCN1CCOCC1	17	2.8	-7	-25
9	Cc1ccc2nc(CSc3nnc4ccccn34)cc(=O)n2c1	4	9.3	3	-28
10	COc1cc(/C=C(/C#N)c2ccc(F)cc2)ccc1Oc1ccc([N+](=O)[O-])cn1	5	-6.0	4	-17

entry	Mtb hypoxia rep	Mtb hypoxia rep growth	Bead autofluor
1	-4	3	nt
2	-6	8	5346
3	nt	nt	4124
4	6	2	6042
5	15	8	4786
6	nt	nt	2263
7	nt	nt	3282
8	10	6	3261
9	6	1	4653
10	12	5	2526

Other entries.
entry	Compound	ugtP null kill	RN4220 kill	BJeLR lethal	PrP 5UTR inh
11	Cc1ccc2oc(C(=O)N3CCN(C)C[C@@H]3C(C)C)c(C)c2c1	15	4.4	11	-33
12	O=C(CCNc1n[nH]c(=O)[nH]c1=O)NN=Cc1cccc(OCc2ccccc2)c1	4	9.1	nt	nt
13	CCN(CCCNC(=O)CN(C)S(=O)(=O)c1cccc2nsnc12)c1ccccc1	14	5.3	-2	-11
14	Cc1cccc(C(=O)Nc2nnc(Cc3c[nH]c4ccccc34)s2)c1	-16	7.1	10	-9
15	Cc1ccccc1CN1CCC(CNC(=O)C2CCCN(c3ncnc4c3nc3n4CCCCC3)C2)CC1 (configuration not stated)	2	-0.4	6	-13
16	Cc1ccc(C(=O)N2CCCC2)cc1Br	-2	-2.1	10	3
17	COC(=O)c1cc(O)cc(OC)c1Oc1cc(C)cc(O)c1C(=O)O	9	5.0	nt	-7
18	NS(=O)(=O)c1ccc(NC(=O)COC(=O)Cc2ccc(Cl)cc2)cc1	4	-0.2	1	-7
19	CCc1cccc(CC)c1NC(=O)CSc1nnc(C2CC2)n1C	13	1.2	-9	-28
20	O=c1[nH]c(NCCO)nc2c1C1(CCCC1)Cc1ccccc1-2	-9	-3.5	6	-14

entry	Mtb hypoxia rep	Mtb hypoxia rep growth	Bead autofluor
11	8	13	3261
12	6	1	nt
13	3	-1	8605
14	-1	2	12812
15	-4	5	6904
16	nt	nt	4840
17	nt	nt	4342
18	7	2	4452
19	-1	0	4934
20	15	16	3943

Arranged by length of the SMILES (falling): part of the list above
entry	Compound	ugtP null kill	RN4220 kill	BJeLR lethal	PrP 5UTR inh
10	COc1cc(/C=C(/C#N)c2ccc(F)cc2)ccc1Oc1ccc([N+](=O)[O-])cn1	5	-6.0	4	-17
1	COc1cc(C=Nn2cnnc2)ccc1OS(=O)(=O)c1ccccc1[N+](=O)[O-]	17	9.7	nt	nt
4	COc1ccc(OC)c2[nH]c(=O)c(CCNC(=O)c3cc4ccccc4o3)cc12	6	3.6	8	1
7	S=c1[nH]nc(-c2ccncc2)n1/N=C/C(Cl)=C\c1ccccc1	nt	nt	-2	-30
19	CCc1cccc(CC)c1NC(=O)CSc1nnc(C2CC2)n1C	13	1.2	-9	-28
9	Cc1ccc2nc(CSc3nnc4ccccn34)cc(=O)n2c1	4	9.3	3	-28
2	CN=C1S/C(=C\c2ccc(SC)cc2)C(=O)N1C	-4	9.5	14	-30

entry	Mtb hypoxia rep	Mtb hypoxia rep growth	Bead autofluor
10	12	5	2526
1	-4	3	nt
4	6	2	6042
7	nt	nt	3282
19	-1	0	4934
9	6	1	4653
2	-6	8	5346

(further entries)
entry	Compound	ugtP null kill	RN4220 kill	BJeLR lethal	PrP 5UTR inh
21	CCC1CCCCN1C(=O)c1noc(C(C)C)c1[N+](=O)[O-] (configuration not stated)	-1	8.7	-7	-17
22	COC(=O)c1sc(-c2ccc(C(C)(C)C)cc2)cc1NC(=O)c1ccccc1C(=O)O	15	6.3	-11	-48
23	COc1ccc(CN(C(=O)CN2C(=O)NC3(CCC(C)CC3)C2=O)C(C)Cc2cccs2)cc1 (configuration not stated)	0	1.7	nt	-5
24	COC(=O)C1=C(C)C(c2ccc(OC)cc2OC)NC(=O)N1 (configuration not stated)	-4	-12	3	-7
25	C=CCN(C(=O)c1cccc(C(F)(F)F)c1)C1(C(=O)Nc2ccccc2)CCN(C(C)C)CC1	-3	-2.1	15	-40
26	Cc1ccc(S(=O)(=O)Nc2nc(C)c(C(=O)NNS(=O)(=O)c3ccccc3)s2)cc1	12	4.5	12	-15
27	COCCNC(=O)CN(Cc1ccccc1)C(=O)CCC(=O)Nc1nccs1	2	1.8	-1	-32
28	Cc1cnc(C(=O)OCC(=O)NC2CCCC(C)C2C)cn1 (configuration not stated)	-8	-2.4	-3	-9
29	CC(C)NC(=S)N1CCN(S(C)(=O)=O)CC1	7	5.6	0	-26
30	COc1ccc(NC(=O)CN(C)CC(=O)NCC(=O)Nc2ccc(F)cc2)cc1	-1	1.8	5	-26

entry	Mtb hypoxia rep	Mtb hypoxia rep growth	Bead autofluor
21	8	7	2760
22	0	0	4416
23	-8	6	nt
24	23	8	2869
25	1	7	4986
26	15	8	4169
27	7	-2	3453
28	-1	3	4074
29	8	6	2440
30	0	0	5695

Additional entries
entry	Compound	ugtP null kill	RN4220 kill	BJeLR lethal	PrP 5UTR inh
31	CCOc1cc(C=NN2C(=O)NC3(CCCCC3)C2=O)cc(Br)c1O	2	6.0	nt	nt
32	CC(=NNC(=O)c1ccc(Cl)cc1)c1ccc(Br)s1	-11	-2.6	nt	nt
33	CCOc1cc(C2/C(=C(\O)c3cc(C)ccc3C)C(=O)C(=O)N2CCN(C)C)ccc1O (configuration not stated)	3	-1.5	7	-27
34	O=C(Nc1ccccc1)Nc1cccc(-c2nnco2)c1	6	2.9	-5	-6
35	O=C(CCCc1ccccc1)NC1CCSC1=O (configuration not stated)	1	4.3	5	-14
36	C=CCN1C(=O)C(=CC=C2N(C)c3ccccc3C2(C)C)SC1=S	-4	8.3	nt	nt
37	c1ccc(-n2nnc3ccccc32)cc1	0	12	4	-30
38	COc1ccc(CCNc2c([N+](=O)[O-])ncn2C)cc1OC	11	4.5	-5	-22
39	COc1cc(OC)cc(C(=O)Nc2ccccc2C(=O)N2CCCC2)c1	5	2.1	-3	-16
40	COCCCNC(=S)NC(=O)c1ccccc1	4	4.0	-3	-17

entry	Mtb hypoxia rep	Mtb hypoxia rep growth	Bead autofluor
31	5	0	nt
32	0	14	nt
33	nt	nt	4064
34	14	10	3011
35	2	8	8501
36	11	2	nt
37	6	3	5943
38	2	11	3798
39	5	10	3316
40	13	1	2066

Continued.
entry	Compound	ugtP null kill	RN4220 kill	BJeLR lethal	PrP 5UTR inh
41	CN1CCN(C(=O)c2ccc3c(c2)N(Cc2cccc(Cl)c2)C(=O)c2ccccc2S3(=O)=O)CC1	1	2.7	-1	-2
42	O=C(/C=C/c1ccc(OCCCF)cc1)NCc1cccc(Cl)c1	-1	0.5	-8	-8
43	O=C(CN1CCN(C(=O)C2CCCO2)CC1)Nc1cc(Cl)ccc1Cl (configuration not stated)	1	1.2	1	0
44	C=CCn1c(=O)c2ccccc2n2c(SCC(=O)NCC)nnc12	-1	-0.8	-8	-15
45	NC(=O)CN1CCOCCOCCOCCOCCOCC1	1	-2.6	1	-2
46	COc1ccccc1OCC(=O)Nc1ccc(C(N)=O)cc1	0	1.8	5	-23
47	CON=C(CN1CCCCC1)c1ccc(Cl)cc1	2	1.9	nt	nt
48	Cc1cc(=O)oc2cc(OC(C)C(=O)N3CCOCC3)ccc12 (configuration not stated)	0	2.6	-4	6
49	CCOC(=O)CSc1ncccn1	10	3.9	4	-22
50	Cc1cc(NNC(=O)Nc2cccc(Cl)c2)nc2c1c(C)nn2C	-3	5.1	-1	nt

entry	Mtb hypoxia rep	Mtb hypoxia rep growth	Bead autofluor
41	0	1	5852
42	nt	nt	2919
43	-10	6	?
44	-1	-12	4090
45	4	0	7076
46	5	-2	21458*
47	17	4	nt
48	5	11	23796*
49	2	9	2619
50	-4	0	nt

Further results follow:
entry	Compound	ugtP null kill	RN4220 kill	BJeLR lethal	PrP 5UTR inh
51	CC(=O)N1CCC(N(CCN2CCOCC2)C(=S)Nc2ccc(C)cc2C)CC1	-3	2.3	-2	-7
52	COc1cccc(NC(=O)C/C(C)=N/NC(=O)c2ccccc2Cl)c1	nt	nt	-7	-24
53	COC(=O)[C@]1(CC(C)C)N[C@H](c2ccc(SC3CCCCC3)c(OC)c2)[C@@H]2C(=O)N(C)C(=O)[C@@H]21	nt	nt	15	-12
54	COc1ccc(C=NNC(=O)c2ccccc2OC)cc1COc1ccc(C)cc1	10	2.4	nt	nt
55	N#CCCN1CCN(S(=O)(=O)c2ccc(C#N)cc2)CC1	4	-2.0	-3	-18
56	Cc1ccccc1CNS(=O)(=O)c1c(C(=O)N2CCCCC2)c(C)n(C)c1C	5	1.6	3	-39
57	COc1ccc(/C=C2\N=C(SC)N(C)C2=O)cc1	-7	11	6	-79
58	CCCc1nc(N2CCN(C)CC2)c2sc(=S)n(-c3ccccc3)c2n1	-2	1.2	-6	-2
59	c1ccc(NCc2nc(-c3ccccc3)no2)cc1	17	5.2	3	-36
60	Cn1ncc(Cl)c1C(=O)N1CCN(S(=O)(=O)c2ccc(F)cc2)CC1	14	5.5	2	-16

entry	Mtb hypoxia rep	Mtb hypoxia rep growth	Bead autofluor
51	2	-7	4002
52	nt	nt	4960
53	nt	nt	3716
54	-8	-9	nt
55	nt	nt	3890
56	15	1	5687
57	-3	0	7672
58	nt	nt	5828
59	nt	nt	?
60	-3	-4	4631

Additional results
entry	Compound	ugtP null kill	RN4220 kill	BJeLR lethal	PrP 5UTR inh
61	Cc1nc(-c2ccccc2)ccc1C(=O)O	5	1.2	-1	-7
62	COCCNC(=O)C(=O)Nc1ccc(Br)cc1	-4	1.3	2	-50
63	COc1cccc(/C=C2\Oc3cc(OCC(=O)N4Cc5ccccc5C[C@H]4C(=O)O)ccc3C2=O)c1	-1	0.3	3	-41
64	CCOC(=O)c1ccc(NC(=O)NCc2cccnc2)cc1	1	0.6	6	-11
65	COc1ccc(C(=O)NC(=S)N2CCC(C)CC2)cc1Br	-4	-4.4	-5	-3
66	COc1ccc(C(=O)c2ccccc2Cl)cc1	4	4.8	3	-19
67	CC(C)c1ncc(S(=O)(=O)c2ccc(C(F)(F)F)cn2)c(N)n1	5	4.4	-1	-20
68	Cc1ccc(-n2c(C)nc3ccccc3c2=O)c(C)c1	6	2.5	-13	-15
69	N=c1n(CCN2CCCCC2)c2ccccc2n1CC(O)COc1ccccc1 (configuration not stated)	-12	-1.9	5	2
70	O=C(NNC1CC(=O)N(c2ccccc2)C1=O)c1cccnc1 (configuration not stated)	2	0.8	-10	-15
71	COc1cc(CC(=O)N(C)CC(=O)Nc2cc(C)ccc2C)cc(OC)c1OC	4	-2.9	-13	-16
72	COc1ccccc1OCC(=O)Nc1c2c(nn1-c1ccc(C)cc1)CS(=O)(=O)C2	4	3.4	-10	-7
73	COc1ccccc1Nc1nc(NCCO)nc(N2CCCC2)n1	-1	-0.7	-7	-4

entry	Mtb hypoxia rep	Mtb hypoxia rep growth	Bead autofluor
61	15	3	4853
62	3	2	12120
63	nt	nt	5571
64	7	17	5455
65	2	11	5812
66	nt	nt	2760
67	-1	13	5987
68	8	6	3864
69	nt	nt	2663
70	-6	-8	5874
71	4	6	5796
72	5	-3	?
73	1	-2	4085

Values by screen from above.
PrP 5UTR inh for nos. 67 to 72: -20, -15, 2, -15, -16, -7
